Mtb bLac sens: beta-lactam sensitization of Mtb H37Rv; M. tuberculosis H37Rv growth with meropenem, percent inhibition; hits of this screen are not shown here; actives 0.27% (n = 330,000); inhibition, % at 25 µM;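 active = about 74% or more and at least 40 points above the plate without the antibiotic, then above 30% in a dose series; inconclusive = first-round hits that could not be retested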;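 also: growth measured after seven days incubation then overnight dye step; 0% = bacteria only wells and 100% = bacteria with antibiotic; twin plates without the antibiotic show which effects depend on it; some results filed as inactive read as strong as hits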
The depositor's hits bear a star; ? = inconclusive.

SMILES	Mtb bLac sens
Cc1ccc(NC(=O)CSCC(=O)NNC(=O)c2nn(C)c(=O)c3ccccc23)cc1	-4.5
O=C(NN1C(=O)NC2(CCCCC2)C1=O)c1ccc(-c2ccc(Cl)cc2)o1	-2.8
O=C(NCC(=O)N1CCCCC1)c1ccc2ccccc2c1	-3.2
CN(C)C(=O)OCc1c(-c2ccccc2)ncc2ccccc12	3.2
Cc1ccc(C)c(NC(=O)CN(C)C(=O)C2CCCC2)c1	6.7
CCN(CC)CCCN=C1N[C@@H](c2cccc(F)c2)C(C(=O)OC)=C(C)N1Cc1ccccc1	-5.0
CC(=O)c1cccc(NC(=O)COC(=O)c2ccc3c(c2)OCO3)c1	5.7
Cn1cc(C(=O)OCC(=O)N2CCCCC2)c2ccccc21	2.8
COc1cc(S(=O)(=O)N2CCOCC2)ccc1NC(=O)COC(=O)/C=C/c1cc(OC)c(OC)c(OC)c1	-6.2
CC1(C)C[C@H]2C3=CCC4[C@@]5(C)CC[C@H](O)[C@](C)(CO)C5CC[C@@]4(C)[C@]3(C)C[C@@H](O)[C@@]2(CO)[C@@H](O)[C@@H]1O (stereo partly drawn)	-4.9
CC(Sc1nnc(-c2ccccc2F)n1C1CC1)C(N)=O (stereo not drawn)	-1.6
COC(=O)c1ccc(COC(=O)CNC(=O)C2CCCCC2)cc1	4.3
CCC(C)N(C(=O)COC(=O)CSc1ccc(C)c(C)c1)C1CCS(=O)(=O)C1 (stereo not drawn)	5.6
COc1ccc(Cl)cc1NC(=O)CSc1cccc[n+]1[O-]	3.1
COc1ccc(NC(=O)Cn2nc(C(=O)O)c3ccccc3c2=O)cc1S(=O)(=O)N1CCCCC1	1.0
COCCN(C(=O)CC1CCCC1)c1c(N)n(CC(C)C)c(=O)[nH]c1=O	-1.1
CC(C)CNC(=O)/C=C/C=C/CCCC/C=C/c1ccc2c(c1)OCO2	-3.3
COc1ccc(NC(=O)COC(=O)c2cccn2C)cc1S(=O)(=O)N1CCCCC1	-11.8
Cc1ccc([N+](=O)[O-])cc1S(=O)(=O)Nc1ccc(C(=O)NCC2CCCO2)cc1 (stereo not drawn)	-3.4
CC(NCC(=O)Nc1ccccc1C(=O)NC1CC1)c1cccc(C(F)(F)F)c1 (stereo not drawn)	0.0
CC(C)Cn1c(N)c(C(=O)COC(=O)c2nccnc2N)c(=O)n(C)c1=O	-6.8
CC(CNC1CCCCC1)OC(=O)c1ccccc1 (stereo not drawn)	-1.2
Cc1ccccc1NC(=O)CN1CCC(C(=O)c2ccc3c(c2)OCCO3)CC1	-4.5
OCC[C@H]1C[C@@H](O)[C@H](O)[C@]2(OCCCc3ccccc32)O1	0.8
COc1ccccc1C(=O)NCC(=O)OC(C)C(=O)NC1CCCCC1C (stereo not drawn)	-9.9
Cc1cccc(NC(=O)CNC(=O)c2cccc(S(=O)(=O)NCc3cccs3)c2)c1C	-0.5
CC(=O)C[C@H](O)CC(=O)[C@H]1OC(=O)[C@H](C)C/C=C\Cc2ccccc21	-4.9
CC(=O)NS(=O)(=O)c1ccc(NC(=O)C(C)NS(=O)(=O)/C=C/c2ccccc2)cc1 (stereo not drawn)	-4.5
CN(C)C(=O)CSc1nc2cc(S(=O)(=O)N3CCOCC3)ccc2o1	0.9
O=C(OCC(=O)N1CCN(c2ccccc2)CC1)c1ccc([N+](=O)[O-])s1	100.0

Quoted at random: 2 entries already listed, in no set order.
SMILES	Mtb bLac sens
Cc1ccc([N+](=O)[O-])cc1S(=O)(=O)Nc1ccc(C(=O)NCC2CCCO2)cc1 (stereo not drawn)	-3.4
CN(C)C(=O)OCc1c(-c2ccccc2)ncc2ccccc12	3.2

Further compounds.
SMILES	Mtb bLac sens
CCCCCCSc1ccc(-c2nc3ccc(Cl)cn3c2NCCCC)cc1OC	6.8
N#Cc1ccc(OCC(=O)NC2CCCCCC2)cc1	0.4
Cc1cc(C(=O)OCC(=O)Nc2cccc([N+](=O)[O-])c2)c(C)o1	2.8
Cc1ccc(S(=O)(=O)N2CCOCC2)cc1NC(=O)CN1C(=O)NC(C)(c2ccc(Cl)cc2Cl)C1=O (stereo not drawn)	-3.4
O=C(c1cc(-c2ccc(Br)cc2)on1)N1CCCCCC1	-3.2
Cc1ccc2c(c1)[C@H]1[C@H](CO2)[C@H](c2ccccc2)[C@]2(C)C(=O)N(Cc3ccccc3)CC(=O)N12	3.2
C=CCOc1ccc(/C=C/C(=O)OCc2csc(CC(=O)Nc3ccccc3C)n2)cc1	-0.8
O=C(OCC(=O)N1CCc2ccccc21)c1ccc([N+](=O)[O-])cc1	49.0
CCn1nc(C(=O)Nc2nc(-c3ccccn3)cs2)c2ccccc2c1=O	91.7
O=C(c1cc(-c2ccc(F)cc2)nc2ccccc12)N1CCN(C2CCS(=O)(=O)C2)CC1 (stereo not drawn)	-0.6
COC(=O)C1=C(c2ccc(OC(F)(F)F)cc2)C[C@@H]2CC[C@H]1N2C(=O)NCCOc1ccc(OC)cc1	-2.4
CCOC(=O)[C@@H]1[C@H]2COc3ccccc3[C@@H]2N2C(=O)N(c3cccc(F)c3)C(=O)[C@@]12C	-6.7
Cc1ccc(S(=O)(=O)N2CCC(N3CCC(C)CC3)CC2)cc1	?
CCC(CC)NC(=O)CSc1ccc(S(=O)(=O)N2CCOCC2)cn1	0.8
O=C(NNC(=O)c1cc(Br)ccc1O)c1csc(N2CCOCC2)n1	4.2

Another view of two compounds above.
> Cc1ccc(S(=O)(=O)N2CCC(N3CCC(C)CC3)CC2)cc1
  Mtb bLac sens: ?
> CCC(CC)NC(=O)CSc1ccc(S(=O)(=O)N2CCOCC2)cn1
  Mtb bLac sens: 0.8

Additional entries
SMILES	Mtb bLac sens
CN(CC(=O)N1CCN(Cc2ccccc2)CC1)C(=O)Cc1cccc2ccccc12	-6.5
CCOc1ccccc1C(=O)NCC(=O)OCC(=O)c1c(N)n(C)c(=O)n(C)c1=O	4.4
CCOC(=O)c1oc2ccccc2c1COC(=O)CNC(=O)c1ccccc1	-5.2
Cc1cc(Cl)ccc1OCC(=O)OCC(=O)NC1CCCC1	-5.2
O=C(O)c1cccc(NC(=O)N2C[C@H]3C[C@@H](C2)c2cccc(=O)n2C3)c1	-2.2
Cc1cc(C)c(NC(=O)CNC(=O)CNC(=O)C2CCCCC2)c(C)c1	4.2
CCCN(CC(=O)Nc1ccccc1C)C(=O)C1CCCN(C(=O)c2ccc(Cl)cc2)C1 (stereo not drawn)	-8.2
O=C(Nc1ccc2c(c1)OCO2)c1cc(-c2ccccc2Cl)on1	0.9
COc1cc2c(cc1OC)C(c1ccccc1)N(C(=O)c1ccccc1)CC2 (stereo not drawn)	-5.1
CCN(CC(=O)Nc1ccc2c(c1)OCO2)CC(=O)Nc1ccccc1C(F)(F)F	2.9
C[S+](CC[C@H](N)C(=O)O)C[C@H]1O[C@@H](n2cnc3c(N)ncnc32)[C@H](O)[C@@H]1O (stereo partly drawn)	2.1
CC(C)NC(=O)N(C)C[C@H]1Oc2ccc(NC(=O)Nc3ccccc3)cc2C(=O)N([C@H](C)CO)C[C@@H]1C	2.5
CC1Cc2ccccc2N1C(=O)CN1CCN(S(=O)(=O)c2cccs2)CC1 (stereo not drawn)	7.6
O=C(/C=C/c1ccc(Cl)cc1)OCC(=O)c1ccc[nH]1	-0.1
CCCCN(C(=O)c1ccncc1)c1c(N)n(CCC)c(=O)[nH]c1=O	2.6
CC1(C)CC(=O)C=C(c2cccc(Cl)c2O)C1	3.3
CCOc1cc(C(=O)NCc2ccc3c(c2)OCO3)cc(OCC)c1OCC	3.3
COc1ccccc1OCCNC(=O)c1cccc(S(=O)(=O)N2CCN(Cc3ccccc3)CC2)c1	1.1
CN(C(=O)COC(=O)c1cc2ccccc2cc1O)c1c(N)n(Cc2ccccc2)c(=O)[nH]c1=O	-0.6
CSc1ccc(CN(C)C(=O)CNC(=O)CNS(=O)(=O)c2ccc(C)c(C)c2)cc1	-1.3
CC(C)C(=O)N1CCN(c2ccccc2NC(=O)c2cccc3ccccc23)CC1	-12.0
COc1ccc(OCCOC(=O)C(C)NS(=O)(=O)c2ccc(NC(C)=O)cc2)cc1 (stereo not drawn)	-7.2
Fc1ccc2cnc(C3=CCCCC3)cc2c1	0.9
COc1cccc(-c2sc3ccccc3c2-c2ccc(OCCN(C)C)cc2)c1	100.1
NCCC(=O)NCCc1cnc[nH]1	4.9
Clc1ccc(CN2CCN(c3ncccn3)CC2)cc1Cl	8.7
COC(=O)N[C@@H]1C[C@H]2[C@@H]3CC[C@H]4C[C@@H](OC)CC[C@]4(C)[C@H]3CC[C@@]12C	4.3
O=C(Cn1cnc2c(OCc3ccccc3)ncnc21)N[C@H](CO)Cc1cc2ccccc2[nH]1	-1.8
CCOC(=O)/C=C/[C@H]1CCc2cccc(Cl)c2O1	22.1
O=C(COC(=O)c1cccnc1Cl)NC(=O)NC1CCCCC1	-4.8
CN1CCN(C2CCN(c3ccc(Nc4nnc(Cl)c(Nc5ccccc5S(C)(=O)=O)n4)c(OC(CF)CF)c3)CC2)CC1	1.6
COc1ccc(CNC(=O)COC(=O)c2ccc3ccccc3n2)cc1	2.1
Cc1ccc(NC(=O)COC(=O)Cn2cnc3c2c(=O)n(C)c(=O)n3C)cc1	-8.4
COC(=O)c1ccc(CNC(=O)CCC(=O)N2CCOCC2)cc1	-1.9
Cn1ccnc1SCC(=O)c1c(N)n(C)c(=O)n(C)c1=O	-3.3
Cc1cccc(C)c1OCC1CNC(=O)O1 (stereo not drawn)	-16.3
O=S(=O)(Nc1ccccc1N1CCOCC1)c1c(F)cc(F)cc1Br	-3.9
COc1ccccc1N1CCN(C(=O)CCNC(=O)c2ccco2)CC1	-3.8
COc1ccc(NC(=O)CCC(=O)c2ccc(Cl)cc2)cn1	-5.3
O=S(=O)(NCCc1ccccn1)c1cc(Cl)cc(Cl)c1O	3.4
COc1ccccc1NC(=O)CSc1n[nH]c(-c2cccnc2)n1	1.8
CC(=O)NC(c1ccco1)c1cc(Cl)c2ccccc2c1O (stereo not drawn)	5.5
CO[C@H]1C=C2CCN(C)[C@H]2C2c3cc4c(cc3C(=O)O[C@@H]21)OCO4 (stereo partly drawn)	-2.8
Cn1nc(C(=O)NC2CCCC2)c2ccccc2c1=O	-5.8
Cc1nnc(SCC(=O)c2c(N)n(C3CC3)c(=O)[nH]c2=O)n1C	-0.9

Brought forward from above: six entries, followed by the next part.
SMILES	Mtb bLac sens
O=S(=O)(NCCc1ccccn1)c1cc(Cl)cc(Cl)c1O	3.4
COc1ccccc1NC(=O)CSc1n[nH]c(-c2cccnc2)n1	1.8
CC(=O)NC(c1ccco1)c1cc(Cl)c2ccccc2c1O (stereo not drawn)	5.5
CO[C@H]1C=C2CCN(C)[C@H]2C2c3cc4c(cc3C(=O)O[C@@H]21)OCO4 (stereo partly drawn)	-2.8
Cn1nc(C(=O)NC2CCCC2)c2ccccc2c1=O	-5.8
Cc1nnc(SCC(=O)c2c(N)n(C3CC3)c(=O)[nH]c2=O)n1C	-0.9
CCN(C[C@H]1N[C@@](CC)(C(=O)OC)[C@H]2C(=O)N(C)C(=O)[C@@H]12)C(=O)c1ccc(F)cc1	-4.0
C[C@H](CO)N1C[C@H](C)[C@@H](CN(C)C(=O)Nc2ccc(C(F)(F)F)cc2)Oc2c(NS(=O)(=O)c3ccc(F)cc3)cccc2C1=O	-3.6
C[C@H](CO)N1C[C@H](C)[C@@H](CN(C)C(=O)Nc2ccc(C(F)(F)F)cc2)Oc2c(NC(=O)Nc3ccc4c(c3)OCO4)cccc2C1=O	0.2
Cc1ccc(/C=C/C(=O)OCC(=O)Nc2cccnc2Cl)o1	-7.4
CCOc1ncccc1C(=O)NCC(c1ccco1)N1CCCCC1 (stereo not drawn)	-3.5
CSc1ncccc1C(=O)Nc1ccccc1N1CCOCC1	2.8
CCC(COC)Oc1cc(NCc2ccccc2)c2ncn(C(C)C)c2c1 (stereo not drawn)	9.7
O=C1NCCOC(=O)[C@@H](Cc2ccc(F)cc2)CC/C=C/C[C@@H]1CC(=O)N(CCO)Cc1ccccc1	-1.0
CCOc1ncccc1C(=O)Nc1cccc(S(=O)(=O)NC2=NCCC2)c1	-8.2
COc1ccc(CNC(=O)C(c2ccccc2F)N(C(=O)c2csnn2)C2CC2)cc1 (stereo not drawn)	3.0
CC(=O)Nc1ccc(N/C=C/C(=O)c2ccc(Cl)cc2)cc1	-2.9
NC(=O)c1ccc(NC(=O)COc2ccc(-n3cnnn3)cc2)cc1	1.6
O=C(O)c1cccc(S(=O)(=O)Nc2cccc(S(=O)(=O)N3CCCC3)c2)c1	-2.3
COC(=O)c1ccccc1NC(=O)CN1C(=O)NC2(CCCCCCC2)C1=O	9.8
Cc1nnc(NC(=O)c2ccc(F)c(S(=O)(=O)N3CCOCC3)c2)s1	-6.5
O=C(COC(=O)c1cc(S(=O)(=O)N2CCOCC2)ccc1F)NC1CC1	-6.6
Nc1ncnc2c1ncn2[C@@H]1O[C@H](CNCC#Cc2ccccc2)[C@@H](O)[C@H]1O	-3.9

Some values from the results shown.
Mtb bLac sens, CCN(C[C@H]1N[C@@](CC)(C(=O)OC)[C@H]2C(=O)N(C)C(=O)[C@@H]12)C(=O)c1ccc(F)cc1 stands at -4.0
Mtb bLac sens, COC(=O)c1ccccc1NC(=O)CN1C(=O)NC2(CCCCCCC2)C1=O stands at 9.8
Mtb bLac sens, COc1ccc(CNC(=O)C(c2ccccc2F)N(C(=O)c2csnn2)C2CC2)cc1 (stereo not drawn) stands at 3.0
Mtb bLac sens, O=C(O)c1cccc(S(=O)(=O)Nc2cccc(S(=O)(=O)N3CCCC3)c2)c1 stands at -2.3
Mtb bLac sens, Nc1ncnc2c1ncn2[C@@H]1O[C@H](CNCC#Cc2ccccc2)[C@@H](O)[C@H]1O stands at -3.9
Mtb bLac sens, NC(=O)c1ccc(NC(=O)COc2ccc(-n3cnnn3)cc2)cc1 stands at 1.6
Mtb bLac sens, CCOc1ncccc1C(=O)Nc1cccc(S(=O)(=O)NC2=NCCC2)c1 stands at -8.2

Source: PubChem BioAssay

The list is partial, so the mix of outcomes need not match the whole.
